Bioassay records: PubChem, Broad Institute
A1 apoptosis 2: A1 inhibition read as caspase activation | MEF A1-2A-BIM cells, caspase-Glo luminescence, 3 h; percent of clofoctol response, DMSO zero | caspase activation, % (no concentration beside the values) | 24,000 tested, under 10 active | AID 2465; in the data active = caspase activation above about 5.9%;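 also: wells of about 30 µL received 50 nL stock; the first replicate is given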
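Material: mouse embryonic fibroblasts co-expressing A1 and BIM (A1-2A-BIM), primed for A1 dependence / Quantity: 2500 cells/well / Buffer or medium: RPMI-1640 growth medium with 10% FBS / Doses: 50 nL compound per well, pinned / Schedule: 3 h compound exposure at 37 °C / Signal: Caspase-Glo luminescence (DEVD substrate) / Measure: Caspase-3/7 activation, seen as rise in luminescence signal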
An asterisk follows results filed as active. A portion of the library; rates above refer to the full screens.

SMILES | A1 apoptosis 2
C[C@H]1CN([C@@H](C)CO)C(=O)Cc2cc(NC(=O)Cn3cnnn3)ccc2O[C@H]1CN(C)Cc1ccc2c(c1)OCO2 | -0.7
C[C@H](CO)N1C[C@H](C)[C@@H](CN(C)C(=O)Nc2ccccc2F)OCc2cnnn2CCCC1=O | 0.6
CNC[C@@H]1Oc2ccc(NC(=O)Nc3ccc(C(F)(F)F)cc3)cc2C(=O)N([C@H](C)CO)C[C@@H]1C | -0.2
C[C@@H]1CCCCO[C@H](CN(C)S(=O)(=O)c2ccccc2)[C@@H](C)CN([C@@H](C)CO)C(=O)c2cc(NS(C)(=O)=O)ccc2O1 | -0.3
C[C@H]1CN([C@@H](C)CO)C(=O)c2cc(NC(=O)CCC(F)(F)F)ccc2O[C@@H]1CN(C)Cc1ccc(C(=O)Nc2ccccc2N)cc1 | -0.6
C[C@@H]1CCCCO[C@@H](CN(C)Cc2ccncc2)[C@H](C)CN([C@H](C)CO)C(=O)c2cc(NC(=O)CCCN(C)C)ccc2O1 | 1.0
C[C@@H]1CCCCO[C@H](CN(C)Cc2ccc(Cl)c(Cl)c2)[C@H](C)CN([C@@H](C)CO)C(=O)c2cc(NC(=O)Nc3ccc4c(c3)OCO4)ccc2O1 | -1.7
C#Cc1ccc([C@@H]2C=C(C(=O)N3CCOCC3)O[C@H](OCC)[C@H]2CCCO)cc1 | 1.3
C[C@H]1CN([C@@H](C)CO)C(=O)c2cccc(NC(=O)CCCCCC(=O)Nc3ccccc3N)c2O[C@@H]1CN(C)S(C)(=O)=O | -0.7
COc1ccc(S(=O)(=O)Nc2cccc3c2O[C@H](CN(C)S(=O)(=O)c2cccs2)[C@@H](C)CN([C@@H](C)CO)C3=O)cc1 | -1.6
Cc1noc(C)c1NC(=O)N(C)C[C@H]1Oc2ccc(NC(=O)CCN3CCOCC3)cc2C(=O)N([C@H](C)CO)C[C@@H]1C | 0.1
CNC[C@H]1Oc2ccc(NS(=O)(=O)c3cn(C)cn3)cc2CC(=O)N([C@H](C)CO)C[C@@H]1C | -1.5
CC(C)NC(=O)Nc1ccc2c(c1)CC(=O)N([C@@H](C)CO)C[C@@H](C)[C@@H](CN(C)Cc1ccc(C(=O)O)cc1)O2 | -0.7
C[C@H](CO)N1C[C@H](C)[C@@H](CN(C)Cc2ccc(C(=O)Nc3ccccc3N)cc2)Oc2ccc(NS(=O)(=O)c3ccc(Cl)cc3)cc2C1=O | -1.0
Cc1cc(C(=O)Nc2cccc3c2O[C@@H](CN(C)C(=O)Nc2ccc4c(c2)OCO4)[C@@H](C)CN([C@H](C)CO)C3=O)n(C)n1 | -0.6
C[C@@H]1CN([C@H](C)CO)C(=O)Cc2cc(N(C)C)ccc2O[C@H]1CN(C)S(=O)(=O)c1cn(C)cn1 | -1.0
Cc1noc(C)c1S(=O)(=O)Nc1ccc2c(c1)C(=O)N([C@@H](C)CO)C[C@@H](C)[C@H](CN(C)C(=O)NC(C)C)O2 | 0.9
C[C@@H]1CN([C@@H](C)CO)C(=O)Cc2cc(NS(=O)(=O)c3ccc(F)cc3)ccc2O[C@@H]1CN(C)S(=O)(=O)c1cccs1 | -1.1
Cc1ccc(S(=O)(=O)Nc2ccc3c(c2)C(=O)N([C@H](C)CO)C[C@@H](C)[C@H](CN(C)C(=O)Nc2ccc4c(c2)OCO4)O3)cc1 | 1.0
C[C@H](CO)N1C[C@H](C)[C@@H](CN(C)C(=O)Cc2ccccc2)OCCCC[C@H](C)Oc2ccc(NS(=O)(=O)c3ccc(F)cc3)cc2C1=O | 1.9
C[C@@H]1CN([C@@H](C)CO)C(=O)c2cc(NC(=O)CCCCCC(=O)Nc3ccccc3N)ccc2O[C@H]1CN(C)S(=O)(=O)c1ccccc1 | -0.7
C[C@@H]1CCCCO[C@@H](CN(C)CC2CCCCC2)[C@H](C)CN([C@@H](C)CO)C(=O)c2cc(NC(=O)C3CCCCC3)ccc2O1 | -0.2
C[C@H]1CN([C@@H](C)CO)C(=O)c2cccc(NS(=O)(=O)c3cccs3)c2O[C@H]1CN(C)C(=O)Nc1ccc(F)cc1 | -0.1
C[C@H]1CN([C@@H](C)CO)C(=O)c2cc(NC(=O)Nc3ccccc3)ccc2O[C@H]1CN(C)Cc1ccccc1 | -0.1

A different layout for some results above.
smiles,A1 apoptosis 2
Cc1noc(C)c1S(=O)(=O)Nc1ccc2c(c1)C(=O)N([C@@H](C)CO)C[C@@H](C)[C@H](CN(C)C(=O)NC(C)C)O2,0.9
C[C@@H]1CN([C@@H](C)CO)C(=O)Cc2cc(NS(=O)(=O)c3ccc(F)cc3)ccc2O[C@@H]1CN(C)S(=O)(=O)c1cccs1,-1.1
Cc1ccc(S(=O)(=O)Nc2ccc3c(c2)C(=O)N([C@H](C)CO)C[C@@H](C)[C@H](CN(C)C(=O)Nc2ccc4c(c2)OCO4)O3)cc1,1.0
C[C@H](CO)N1C[C@H](C)[C@@H](CN(C)C(=O)Cc2ccccc2)OCCCC[C@H](C)Oc2ccc(NS(=O)(=O)c3ccc(F)cc3)cc2C1=O,1.9
C[C@@H]1CN([C@@H](C)CO)C(=O)c2cc(NC(=O)CCCCCC(=O)Nc3ccccc3N)ccc2O[C@H]1CN(C)S(=O)(=O)c1ccccc1,-0.7
C[C@@H]1CCCCO[C@@H](CN(C)CC2CCCCC2)[C@H](C)CN([C@@H](C)CO)C(=O)c2cc(NC(=O)C3CCCCC3)ccc2O1,-0.2
C[C@H]1CN([C@@H](C)CO)C(=O)c2cccc(NS(=O)(=O)c3cccs3)c2O[C@H]1CN(C)C(=O)Nc1ccc(F)cc1,-0.1

Next results follow:
SMILES | A1 apoptosis 2
CO/N=[N+](\[O-])N(C)CC(C)O (stereo not drawn) | 0.8
COc1ccc(NC(=O)N(C)C[C@H]2Oc3c(NC(=O)Nc4c(C)noc4C)cccc3C(=O)N([C@H](C)CO)C[C@@H]2C)cc1 | -0.3
C[C@H]1CN([C@@H](C)CO)C(=O)c2cccc(NS(=O)(=O)c3ccc(Cl)cc3)c2O[C@@H]1CN(C)C(=O)NC1CCCCC1 | 0.5
C[C@@H]1CCCCO[C@H](CN(C)C)[C@H](C)CN([C@H](C)CO)C(=O)c2cc(NS(=O)(=O)c3ccc(Cl)cc3)ccc2O1 | 0.1
C[C@@H]1CN([C@@H](C)CO)C(=O)c2cc(NS(=O)(=O)c3ccccc3)ccc2O[C@@H](C)CCCCO[C@H]1CN(C)C | -0.7
Cc1ccc(S(=O)(=O)Nc2ccc3c(c2)C(=O)N([C@@H](C)CO)C[C@@H](C)[C@@H](CN(C)C(=O)Nc2ccccc2)OCCCC[C@@H](C)O3)cc1 | -1.4
C[C@H](CO)N1C[C@H](C)[C@@H](CN(C)C(=O)Nc2ccc3c(c2)OCO3)Oc2ccc(NS(C)(=O)=O)cc2CC1=O | 0.2
Cc1noc(C)c1S(=O)(=O)Nc1ccc2c(c1)C(=O)N([C@H](C)CO)C[C@H](C)[C@@H](CN(C)CC1CCCCC1)OCCCC[C@H](C)O2 | -0.1
O=C1O[C@@H](c2ccccc2)[C@@H](c2ccccc2)N2[C@@H](c3ccc(OCCO)cc3)[C@]3(C(=O)Nc4ccc(C#CCCO)cc43)[C@@H](C(=O)N3CCCCCCC3)[C@H]12 | -0.6
C[C@@H]1CN([C@H](C)CO)C(=O)Cc2cc(NC(=O)C3CCCCC3)ccc2O[C@@H]1CN(C)S(C)(=O)=O | 0.7
COc1ccc(S(=O)(=O)N(C)C[C@@H]2Oc3c(NS(=O)(=O)c4c(C)noc4C)cccc3C(=O)N([C@@H](C)CO)C[C@@H]2C)cc1 | -0.7
O=C(Cn1cc(CN2C(=O)COC[C@H]2c2ccccc2)nn1)Nc1nccs1 | 1.0
COc1ccc(S(=O)(=O)N(C)C[C@H]2Oc3c(NS(=O)(=O)c4ccc(Cl)cc4)cccc3C(=O)N([C@H](C)CO)C[C@@H]2C)cc1 | -0.9
C[C@@H]1CN([C@@H](C)CO)C(=O)Cc2cc(NS(C)(=O)=O)ccc2O[C@@H]1CN(C)Cc1ccccc1 | 0.1
Cc1noc(C)c1NC(=O)Nc1ccc2c(c1)C(=O)N([C@H](C)CO)C[C@H](C)[C@@H](CN(C)C(=O)NC1CCCCC1)OCCCC[C@@H](C)O2 | -1.5
O=S(=O)(NC1CCN(Cc2ccc(OCCO)cc2)CC1)c1cc(C(F)(F)F)ccc1Cl | -0.3
COc1ccc(NC(=O)Nc2ccc3c(c2)CC(=O)N([C@@H](C)CO)C[C@H](C)[C@@H](CN(C)C(=O)NC2CCCCC2)O3)cc1 | -1.3
COc1ccc(NC(=O)Nc2ccc3c(c2)C(=O)N([C@@H](C)CO)C[C@H](C)[C@H](CN(C)C(=O)Nc2cccc4ccccc24)O3)cc1 | -0.6
C[C@H](CO)N1C[C@H](C)[C@H](CN(C)C(=O)Nc2cccc3ccccc23)Oc2c(NS(=O)(=O)c3cccs3)cccc2C1=O | -1.1
COc1ccc(NC(=O)Nc2ccc3c(c2)C(=O)N([C@@H](C)CO)C[C@H](C)[C@H](CN(C)C(=O)NC(C)C)OCCCC[C@@H](C)O3)cc1 | -0.3
C[C@H]1CN([C@@H](C)CO)C(=O)c2cc(NC(=O)CCN3CCOCC3)ccc2O[C@H]1CN(C)Cc1ccccc1 | 0.0
C[C@H]1CCCCO[C@H](CN(C)S(=O)(=O)c2ccccc2)[C@@H](C)CN([C@@H](C)CO)C(=O)c2cc(NS(=O)(=O)c3ccccc3)ccc2O1 | 1.6
C[C@@H]1CN([C@@H](C)CO)C(=O)c2cc(NS(=O)(=O)c3ccccc3)ccc2O[C@H]1CN(C)C(=O)Nc1ccc2c(c1)OCO2 | 1.5
COc1ccc(NC(=O)Nc2ccc3c(c2)C(=O)N([C@H](C)CO)C[C@@H](C)[C@H](CN(C)C(=O)Nc2ccc(C(F)(F)F)cc2)O3)cc1 | -0.2
C[C@@H]1CN([C@H](C)CO)C(=O)c2cc(NC(=O)Nc3ccc4c(c3)OCO4)ccc2O[C@@H](C)CCCCO[C@H]1CN(C)S(=O)(=O)c1ccccc1 | -0.2
Cc1noc(C)c1NC(=O)N(C)C[C@@H]1Oc2ccc(NC(=O)C3CCCCC3)cc2CC(=O)N([C@@H](C)CO)C[C@@H]1C | 0.6
COc1ccc(CN(C)C[C@H]2Oc3ccc(NC(=O)CCC(F)(F)F)cc3C(=O)N([C@@H](C)CO)C[C@H]2C)cc1 | -1.2
C[C@@H]1CN([C@@H](C)CO)C(=O)c2cccc(NC(=O)c3cnccn3)c2O[C@@H]1CN(C)CC1CC1 | -0.6
CC(C)NC(=O)Nc1ccc2c(c1)C(=O)N([C@@H](C)CO)C[C@@H](C)[C@@H](CN(C)Cc1ccccc1)O2 | -0.1
Cc1ccc(S(=O)(=O)Nc2ccc3c(c2)C(=O)N([C@H](C)CO)C[C@@H](C)[C@@H](CN(C)Cc2ccncc2)OCCCC[C@@H](C)O3)cc1 | -0.9
C[C@H](CO)N1C[C@H](C)[C@@H](CN(C)C(=O)Nc2ccc(F)cc2)Oc2c(NS(C)(=O)=O)cccc2C1=O | 0.7
C[C@H](CO)N1C[C@H](C)[C@@H](CN(C)S(=O)(=O)c2cccs2)OCCCC[C@H](C)Oc2ccc(NC(=O)C3CCCCC3)cc2C1=O | 0.5
C[C@H](CO)N1C[C@H](C)[C@@H](CN(C)C(=O)Nc2cccc3ccccc23)Oc2ccc(NC(=O)Nc3cccc4ccccc34)cc2C1=O | 1.5
COc1ccccc1CN(C)C[C@H]1OCc2cnnn2CCCC(=O)N([C@@H](C)CO)C[C@H]1C | -0.5
C[C@H]1CN([C@@H](C)CO)C(=O)Cc2cc(NC(=O)c3ccncc3)ccc2O[C@H]1CN(C)Cc1ccncc1 | 0.0
CNC[C@H]1OCCCC[C@@H](C)Oc2ccc(NC(=O)C3CCCCC3)cc2C(=O)N([C@H](C)CO)C[C@H]1C | 0.1
CNC[C@H]1Oc2c(NC(=O)Nc3ccc(C(F)(F)F)cc3)cccc2C(=O)N([C@@H](C)CO)C[C@H]1C | 0.0
CNC[C@@H]1Oc2c(NC(=O)Nc3ccccc3)cccc2C(=O)N([C@@H](C)CO)C[C@H]1C | -0.7
C[C@H]1CN([C@@H](C)CO)C(=O)Cc2cc(NC(=O)NC3CCCCC3)ccc2O[C@H]1CN(C)Cc1ccc(C(=O)Nc2ccccc2N)cc1 | -1.5
C[C@H]1CN([C@@H](C)CO)C(=O)c2cc(NS(=O)(=O)c3ccc(Cl)cc3)ccc2O[C@@H]1CN(C)C(=O)NC1CCCCC1 | 0.7
C[C@H]1CN([C@@H](C)CO)C(=O)c2cccc(NC(=O)Nc3ccccc3)c2O[C@H]1CN(C)Cc1ccncc1 | -0.5
C[C@@H]1CN([C@H](C)CO)C(=O)Cc2cc(NC(=O)Nc3cccc4ccccc34)ccc2O[C@H]1CN(C)S(=O)(=O)c1ccc(Cl)cc1 | 0.2
COc1ccc(NC(=O)N(C)C[C@H]2Oc3ccc(NC(=O)CCC(F)(F)F)cc3C(=O)N([C@H](C)CO)C[C@H]2C)cc1 | -1.5
Cc1ccc(S(=O)(=O)N(C)C[C@@H]2Oc3ccc(NC(=O)CCC(F)(F)F)cc3CC(=O)N([C@H](C)CO)C[C@@H]2C)cc1 | -0.2
C[C@@H]1CN([C@H](C)CO)C(=O)Cc2cc(NS(=O)(=O)c3ccc(Cl)cc3)ccc2O[C@H]1CN(C)C(=O)Nc1ccccc1 | 0.1
C[C@H](CO)N1C[C@H](C)[C@H](CN(C)S(=O)(=O)c2cn(C)cn2)Oc2c(NC(=O)c3cnccn3)cccc2C1=O | 0.5
